GLA inh pH 4.5 – inhibitors of human alpha-galactosidase A at pH 4.5; purified enzyme, 4-MU-alpha-Gal fluorescence, pH 4.5; activity change, negative = inhibition, % at 105 µM; 230,000 tested, under 10 active; inconclusive = small, poorly fitted or top-dose-only inhibition, or a rising curve; inactive = flat fitted curve, though single readings scatter; no compound was filed as active;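 further: 0% = full activity with enzyme and -100% = basal without enzyme; dose as in the result columns while the protocol names 77 µM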
Target sequence (P06280 whole entry, looked up): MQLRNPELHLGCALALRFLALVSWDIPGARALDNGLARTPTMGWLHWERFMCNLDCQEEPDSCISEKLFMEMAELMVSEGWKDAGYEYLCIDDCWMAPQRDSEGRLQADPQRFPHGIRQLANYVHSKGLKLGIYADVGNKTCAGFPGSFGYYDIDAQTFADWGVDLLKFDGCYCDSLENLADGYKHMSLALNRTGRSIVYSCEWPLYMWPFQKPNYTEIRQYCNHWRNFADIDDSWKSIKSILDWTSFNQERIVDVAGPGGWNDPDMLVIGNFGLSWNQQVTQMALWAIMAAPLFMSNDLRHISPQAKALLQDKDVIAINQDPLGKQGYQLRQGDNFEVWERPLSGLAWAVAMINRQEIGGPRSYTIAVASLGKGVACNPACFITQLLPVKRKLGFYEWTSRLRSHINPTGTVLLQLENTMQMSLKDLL
Rango-impB inh – Rango-importin beta binding inhibition; Rango CFP/YFP FRET sensor + importin beta, 45 min; 0.031% of 340,000 active; Potency, µM (titrated, usually from 92.2 µM), without a hit: top-dose inhibition of complex formation; Q14974; AID 540263; active = rising FRET ratio curve, often small or poorly fitted; inconclusive = mostly compound fluorescence or quenching in the first reads; inactive = flat curves in all reads;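 further: potency means the concentration at half of the fitted maximal effect; 0% = DMSO wells and 100% = buffer wells lacking importin beta; nearly all actives have a fitted effect of over 15% in size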
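FRET biosensor (snurportin 1 IBB flanked by EYFP and cerulean), 50 nM, with compound 5 min, then 0.125 microM importin beta in PBS, 1 mM DTT, 0.02% Tween-20, 0.1% BSA. CFP/YFP ratio read after 45 min at room temperature; pre-read flags interference.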
miR-21 reporter – miR-21 reporter, rising signal; HeLa miR-21 FLuc reporter, luciferase, 48 h; Potency, µM (doses to about 38.3 µM), for inactives: at the top dose reporter change, positive = more light; 340,000 tested, under 10 active; AID 2288; active = well fitted rising curve with a large enough effect; inconclusive = small, poorly fitted or top-dose-only effect; inactive = no such curve, though single readings can be large or run the other way;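 further: % of control where 0% means no effect; miR-21 action dims this reporter so a rising signal means less miR-21 action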
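HeLa miR-21-FLuc reporter line, endogenous miR-21; 2000 cells/well in DMEM/10% FBS; compound titration up to ~40uM final, 48 h, 37 degree Celsius; luciferase detection reagent, 15 min lysis, CCD luminescence.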
Rango dissoc inh – inhibition of RanGTP-driven Rango-importin beta dissociation | O95149+P62826 | Biochemical FRET Rango-importin beta, RanGTP-induced dissociation | Potency, µM (series often up to 46.1 µM), for inactives: at the top dose activity change, negative = inhibition | 0.071% of 340,000 active | AID 540253; active means falling FRET ratio curve, often poorly fitted, with flat reads before Ran was added; inconclusive means other falling curves, or compound fluorescence or quenching; inactive means flat or rising ratio curve;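 further: potency means the concentration at half of the fitted maximal effect; % of control where 0% means no effect; nearly all actives have a fitted effect of over 45% in size; -100% = wells without RanGTP and RCC1; the record marks most hits as doubtful in a second field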
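Compounds sat 5 min at room temperature with 0.1 uM Rango biosensor plus 0.25 uM importin beta, then FRET pre-read. RanGTP-RCC1 (0.6 uM Ran, 2mM GTP, 0.2 uM RCC1) added for 45 min, and the CFP/YFP post-read measured blocked complex dissociation.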
* = called active by the depositor; ? = inconclusive; · = no result given; & = joins results of further samples; [ ] = another dose, or the depositor's remark.

The first 6 compounds as a preview:
SMILES	GLA inh pH 4.5	Rango-impB inh	miR-21 reporter	Rango dissoc inh
N#Cc1cccc(C(c2nnnn2Cc2ccccc2)N2CCCC2)c1 (configuration not stated)	-1	0.3%	-3%	-14%
O=C(CSc1ccc(-c2ccccc2)nn1)N1CCCc2ccccc21	-1	-5.8%	-6%	4%
COc1cccc(N2CCN(S(=O)(=O)c3ccc4ccccc4c3)CC2)c1	·	3.3%	·	6%
COc1ccc(OC)c(N(CC(=O)N2CCCC2)S(=O)(=O)c2ccc(OC)c(OC)c2)c1	-2	1.9%	-5%	-9%
COc1ccc(OC)c(C2NC(=O)c3sc(=S)n(-c4ccccc4)c3N2)c1 (configuration not stated)	-15	-0.8%	1%	15%
Cc1cccc(NC2=C(NCCO)C(=O)c3ccccc3C2=O)c1	-11	-1.4%	-41%	8%

All compounds of this part, from the start:
SMILES	GLA inh pH 4.5	Rango-impB inh	miR-21 reporter	Rango dissoc inh
N#Cc1cccc(C(c2nnnn2Cc2ccccc2)N2CCCC2)c1 (configuration not stated)	-1	0.3%	-3%	-14%
O=C(CSc1ccc(-c2ccccc2)nn1)N1CCCc2ccccc21	-1	-5.8%	-6%	4%
COc1cccc(N2CCN(S(=O)(=O)c3ccc4ccccc4c3)CC2)c1	·	3.3%	·	6%
COc1ccc(OC)c(N(CC(=O)N2CCCC2)S(=O)(=O)c2ccc(OC)c(OC)c2)c1	-2	1.9%	-5%	-9%
COc1ccc(OC)c(C2NC(=O)c3sc(=S)n(-c4ccccc4)c3N2)c1 (configuration not stated)	-15	-0.8%	1%	15%
Cc1cccc(NC2=C(NCCO)C(=O)c3ccccc3C2=O)c1	-11	-1.4%	-41%	8%
O=C(CSc1nc(Nc2ccccc2)nc(N2CCOCC2)n1)Nc1cc(Cl)ccc1O	·	0.0%	?	5%
COc1cccc(N2CC(C)Cn3c2nc2c3c(=O)[nH]c(=O)n2C)c1 (configuration not stated)	·	-2.4%	-4%	21%
CCOc1ccc(NC(=S)NC(=O)/C=C/c2ccc(OC)c(OC)c2)c([N+](=O)[O-])c1	11	1.2%	-5%	-10%
COc1cccc(OC)c1CN(C)C(=O)c1cnccc1C(F)(F)F	-9	-1.0%	-2%	19%
S=C(N/N=C/c1ccccc1Cl)Nc1cccc(Cl)c1Cl	1	0.6%	-8%	3%
C=CCNC(=O)c1ccc2c(c1)nnn2C	2	1.2%	-4%	-3%
Cc1cc(N/C(=N/S(=O)(=O)c2cc(F)ccc2F)c2ccccc2)n(-c2ccccc2)n1	-12	-2.4%	-29%	-7%
COc1ccccc1N1CSC2=C(C#N)C(c3ccc(SC)cc3)CC(=O)N2C1 (configuration not stated)	-3	?	-3%	?
CCN(C(=O)c1cc(S(=O)(=O)N2CCCCC2)c[nH]1)c1ccc(OC)cc1	·	3.8%	24%&22%	26%
Cc1ccc(S(=O)(=O)Nc2cc(C(=O)NCCN3CCCC3)ccc2N2CCCCC2)cc1	7	1.4%	2%	10%
CCOC(=O)N1CCN(CC(O)COC(CC)c2ccccc2)CC1 (configuration not stated)	-4	-0.7%	-4%	0%
CCOCCCN(C)C1CCN(C(=O)c2oc3ccccc3c2NC(=O)COc2ccc(F)cc2)CC1	·	-0.1%	0%	2%
Cc1ccc(C2(c3ccccc3)NC(=O)N(CC(=O)NC3(C#N)CCCC3)C2=O)cc1C (configuration not stated)	·	-0.3%	·	-2%
CCN(c1ccccc1)S(=O)(=O)c1ccc(C(=O)NCc2ccco2)cc1	·	0.9%	·	0%
COc1ccccc1CN1CCNC(=O)C1CC(=O)NCCc1cnccn1 (configuration not stated)	-2	1.6%	0%	-18%
CCOc1ccccc1N1CCN(C(=O)c2c(C)noc2C)CC1	0	4.1%	-4%	8%
CCCc1cc(C(=O)Nc2cc(Br)ccc2O)no1	-12	7.2%	-45%	-9%
CC1Cc2cc(/C(O)=C3/C(=O)C(=O)N(Cc4ccncc4)C3c3ccc(N(C)C)cc3)ccc2O1 (configuration not stated)	·	?	1%	?
COc1cc(OC)c(-c2nc3ccccc3s2)cc1OC	?	2.1%	-12%	4%
CCc1ccc(C(=O)NCC2(c3ccccc3)CCOCC2)o1	·	0.7%	·	22%
O=C1c2cccc3c(N4CCCCC4)ccc(c23)C(=O)N1c1ccccn1	4	?	-7%	?
Cn1c(=O)c2cn(-c3ccccc3)cc2n(C)c1=O	7	-3.2%	-12%	6%
CCOC(=O)c1c(-c2ccc(C)o2)csc1NC(=O)CN(C)CC(=O)Nc1ccc(C)cc1	1	-4.0%	0%	-7%
Cc1nc2c(C(=O)NCCc3ccccc3Cl)c[nH]n2c(=O)c1Cl	-12	8.9%	-7%	7%
COc1ccc(NC(=O)C2CCCN2C(=O)Nc2cccc(F)c2)cc1 (configuration not stated)	0	4.0%	0%	1%
CN1C(=O)SC(Nc2cccc3ccccc23)C1=O (configuration not stated)	-14	0.5%	1%	-12%
COC(=O)Sc1nc(N2CCOCC2)c2c(c1C#N)CC(C)(C)OC2	-3	-0.9%	-12%	9%
COc1ccc(-c2nc3n(c(=O)c2C#N)CCS3)cc1	-2	?	-5%	17%
COC(=O)C(Cc1ccccc1)NC(=O)c1ccc(NS(=O)(=O)c2ccc3[nH]c(=O)[nH]c3c2)cc1 (configuration not stated)	·	-0.1%	·	-5%
O=C(NCC1CCCO1)C1CCC(=O)N1Cc1ccccc1Cl (configuration not stated)	-7	-0.5%	1%	4%
COCCn1c(Cc2cccn2C)nnc1SCC(=O)NCc1ccc2c(c1)OCO2	2[21.1 µM]	-2.3%	0%	-9%
CC(=O)c1ccc(NC(=O)CSc2ccc(-c3ccc(-n4cccn4)cc3)nn2)cc1	·	0.3%	·	6%
Cn1cnnc1SCC(=O)Nc1ccc2ccccc2c1	·	-1.4%	·	-4%
CCc1ccc2c(CN(C)Cc3ccccc3OC)cc(=O)oc2c1	·	-1.3%	-23%	1%
CCOC(=O)c1c(NC(=O)C2=C(C)NC(=S)NC2c2ccc(C)cc2)sc(C)c1C (configuration not stated)	9	?	-1%	-20%
Cc1cccc(CNc2ncnc3[nH]ncc23)c1	·	0.2%	·	1%
CN(C)S(=O)(=O)c1ccc(Cl)c(NC(=O)COC(=O)/C=C/c2cnc3ccccc3n2)c1	3	-2.8%	-1%	16%
CCO/C=C1/C(=O)N(CC)c2ccccc21	-12	-0.3%	-1%	3%
Cc1ccc(S(=O)(=O)N2CCC[C@H]2C(=O)OCc2nc3ccccc3s2)cc1	·	1.8%	·	51%
CC(=O)NCC(=O)OCC(=O)c1ccc(C)c(C)c1	0	-3.5%	-6%	-6%
O=C(Nc1ccccn1)c1ccc(Cl)c(S(=O)(=O)N2CCOCC2)c1	·	1.2%	-5%	6%
Oc1ccc(/C=N/N2CCCCC2)c(O)c1	·	4.7%	-36%	-3%

3 entries already listed, ordered by the value under Rango-impB inh, high to low:
SMILES	GLA inh pH 4.5	Rango-impB inh	miR-21 reporter	Rango dissoc inh
Oc1ccc(/C=N/N2CCCCC2)c(O)c1	·	4.7%	-36%	-3%
Cc1ccc(S(=O)(=O)Nc2cc(C(=O)NCCN3CCCC3)ccc2N2CCCCC2)cc1	7	1.4%	2%	10%
CN(C)S(=O)(=O)c1ccc(Cl)c(NC(=O)COC(=O)/C=C/c2cnc3ccccc3n2)c1	3	-2.8%	-1%	16%

(listing goes on)
SMILES	GLA inh pH 4.5	Rango-impB inh	miR-21 reporter	Rango dissoc inh
COc1ccc(OC)c(S(=O)(=O)N2CCC(C(=O)Nc3ccc(C)c(C)c3)CC2)c1	2	3.3%	28%	2%
Cc1ccccc1/C=C/c1cc[n+](C)cc1	0	-1.5%	4%	-6%
COC(=O)c1sccc1NC(=S)N1CCN(c2cc(C)ccc2C)CC1	1	-0.7%	3%	-7%
CC(C)N(c1ccccc1)c1ccc(NC(=O)C2CCCO2)cc1 (configuration not stated)	3	-0.5%	-2%	5%
CC1CN(C(=O)C(C)N2CCN(c3cccc(Cl)c3)CC2)CC(C)O1 (configuration not stated)	-2	-0.8%	-1%	3%
CC(C)Cc1nnc(NC(=O)CC(C)c2ccccc2)s1 (configuration not stated)	·	0.0%	-4%	-15%
COc1cc(CC(NC(C)=O)C(=O)NC2CCN(c3nc(C)cc(C)c3C#N)CC2)cc(OC)c1 (configuration not stated)	0	4.8%	-3%	1%
Cc1cc(NC(=O)COC(=O)c2cccc(O)c2)no1	-4	1.1%	-3%	9%
O=C(NCc1ccco1)c1ccc(N2CCCC2=O)cc1	1	2.8%	-17%	-3%
CCCn1c(NCc2ccccc2NS(=O)(=O)c2ccc(C)cc2)nc2ccccc21	-21	3.3%	20%	-1%
CN(CC(=O)Nc1ccc(F)c(F)c1)S(=O)(=O)c1cccc2nsnc12	1	3.5%	4%	12%
O=C(/C=C/c1ccccc1[N+](=O)[O-])N1CCN(C(=O)c2ccco2)CC1	10	-1.9%	-5%	-1%
O=C(c1ccc(NS(=O)(=O)c2cccc(F)c2)cc1)N1CCCCC1	·	2.9%	8%	-1%
CCN=C1SC(C(=O)Nc2cccc(Cl)c2)CC(=O)N1CC (configuration not stated)	2	-1.2%	14%	-9%
CCOC(=O)N1CCN(C(=O)CN(C2CCCCC2)S(C)(=O)=O)CC1	-1	-1.1%	-7%	-12%
C=CCn1c(SCc2nc3ccccc3[nH]2)nnc1-c1ccc(OC)cc1	-4	4.7%	10%	8%
O=C(COC(=O)c1c2c(nc3ccccc13)CCCCC2)NCc1ccc2c(c1)OCO2	-13	0.0%	7%	-22%
C/C(=N\NC(=O)COc1ccc(C)cc1[N+](=O)[O-])c1ccc2c(c1)OCCO2	·	-3.2%	·	-8%
COc1cc(C(C)=O)ccc1OC(=O)CN1C(=O)c2ccccc2C1=O	·	1.9%	-2%	-3%
O=C(CCl)c1ccc(Cc2ncc(C(F)(F)F)cc2Cl)s1	-1	0.0%	-2%	-8%
COc1ccc(-c2nc(SCC(=O)Nc3cc(C)on3)n[nH]2)cc1	5	4.2%	-11%	-7%
CC(=O)c1c(C)oc2ccc(O)c(CN3CCOCC3)c12	-1	-1.5%	1%	2%

Part of the list above in order of SMILES length, ascending:
SMILES	GLA inh pH 4.5	Rango-impB inh	miR-21 reporter	Rango dissoc inh
C=CCNC(=O)c1ccc2c(c1)nnn2C	2	1.2%	-4%	-3%
CCc1ccc2c(CN(C)Cc3ccccc3OC)cc(=O)oc2c1	·	-1.3%	-23%	1%
CCCn1c(NCc2ccccc2NS(=O)(=O)c2ccc(C)cc2)nc2ccccc21	-21	3.3%	20%	-1%
Cc1ccc(S(=O)(=O)Nc2cc(C(=O)NCCN3CCCC3)ccc2N2CCCCC2)cc1	7	1.4%	2%	10%

These rows are one share of the data. The share of hits here may be higher or lower than overall.
